# Sa growth 42C: S. aureus growth inhibition at 42 and 30 °C, primary screen, LtaS inhibitor project, RN4220, two temperatures; AID 720641, 2013; relative growth, % (concentration not given with the values); OD600, 20 h, 42 °C; active compounds read low; 0.53% of 170,000 active;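 active = growth at 42 °C up to 50% and 20 or more points under that at 30 °C, or under 10% at both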;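 also: 300 nL library stock went into each well; scaled to the means of positive and negative controls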
# HCMV UL50-53 inh: inhibitors of HCMV UL50-UL53 interaction, biochemical, HTRF. HCMV UL50-UL53 nuclear egress complex (human cytomegalovirus). normalized percent inhibition. inhibition, % (test concentration not listed). 0.15% of 190,000 active;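 active = both replicates at 50% or more, plus weaker picks with an unusually low signal ratio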;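 also: stock transfer was 100 nL into about 20 µL; 0% = negative control wells and 100% = wells with untagged competitor protein; inactives centre near -12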
# GIV-Gai inh: inhibitors of GIV peptide binding to Galpha-i3, primary screen, biochemical, fluorescence polarization, FITC-GIV GBA peptide, rat Galphai3. 0.42% of 210,000 active. AID 1224905, 2016. 90 min; active compounds read low; scaled: aluminum fluoride 0%, vehicle 100%. percent of control (FP), % (test concentration not listed);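 active = replicate mean at 85% of control or lower, very high polarization wells dropped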;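 also: lower values mean more displacement of the GIV peptide from Galpha-i3; wells of about 15 µL received 100 nL stock; the first replicate is given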
# Target sequence (P08753 whole entry, looked up): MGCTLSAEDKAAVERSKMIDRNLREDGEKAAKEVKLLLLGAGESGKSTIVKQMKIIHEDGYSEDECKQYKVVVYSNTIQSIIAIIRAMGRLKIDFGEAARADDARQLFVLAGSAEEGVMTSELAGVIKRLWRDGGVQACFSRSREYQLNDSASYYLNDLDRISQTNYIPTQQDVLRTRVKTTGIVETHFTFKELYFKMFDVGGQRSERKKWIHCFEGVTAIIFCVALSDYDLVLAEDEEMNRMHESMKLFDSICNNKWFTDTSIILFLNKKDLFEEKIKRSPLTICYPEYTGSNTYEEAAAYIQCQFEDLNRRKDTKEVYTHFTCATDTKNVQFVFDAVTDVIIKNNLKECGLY
# Sa growth 42C second temp: recorded beside Sa growth 42C, whose call it bears; relative growth, %; measured here: growth at 30 °C;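 optical density after 20 h as mean of two plates; 100% = untreated growth and lower means inhibition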
# * = called active by the depositor; . = no result given; & = joins results of further samples.
SMILES,Sa growth 42C,Sa growth 42C second temp,HCMV UL50-53 inh,GIV-Gai inh
O=C(Nc1nccs1)c1oc2ccccc2c1CSc1ncn[nH]1,80,90,24,.
O=C1CC(c2nc(-c3ccc(Cl)cc3)no2)CN1c1ccc2c(c1)OCCO2 (stereo not given),87,96,.,98
CC(=O)NCc1ccc(C(=O)CSc2nnc3sc4ccccc4n23)o1,77,54,-40,.
O=C1CCC(C(=O)Nc2nc(SCc3ccc(Cl)cc3)n[nH]2)=NN1,51,85,-13,.
Cc1nn(Cc2cccc(F)c2)c(=O)c2noc(C)c12,.,.,-29,111
COc1cc(-c2nc3nc[nH]n3c2Nc2ccc(C(C)C)cc2)ccc1O,100,88,2&-14,107&100
Oc1oc(-c2ccccc2)nc1/C=C1\C=Nc2ccccc21,112,108,-1,.
Cc1ccccc1N1OC2C(=O)N(c3sc4c(c3C#N)CCCC4)C(=O)C2C1c1cccs1 (stereo not given),59,25,-13,101
CSc1nc2c(c(=O)n1-c1ccc(F)cc1)SCC2,112,92,-2,108
COc1ccc2c(c1)CCC/C2=N\N,102,90,-22,.
O=C(NCCc1ccc(Cl)cc1)c1cccn1-c1nnc(N2CCCC2)s1,131,95,.,105
O=C(NC1(O)C(=O)c2ccccc2C1=O)c1ccccn1,82,86,36,74*
Cc1ccccc1-c1nnc(-c2ccccc2)o1,89,74,12,108
Cn1cc(C(=O)Nc2ccc(Br)cc2F)c2[nH]c(=O)n(-c3ccc(Cl)cc3)c(=O)c21,.,.,8,108
Cn1ncc2c(NCCO)ncnc21,105,99,6,104

# Compound profiles, from the list above. Order of screens: Sa growth 42C	Sa growth 42C second temp	HCMV UL50-53 inh	GIV-Gai inh
# Cc1ccccc1-c1nnc(-c2ccccc2)o1 reads 89	74	12	108
# O=C(NCCc1ccc(Cl)cc1)c1cccn1-c1nnc(N2CCCC2)s1 reads 131	95	.	105
# Cn1cc(C(=O)Nc2ccc(Br)cc2F)c2[nH]c(=O)n(-c3ccc(Cl)cc3)c(=O)c21 reads .	.	8	108
# O=C1CCC(C(=O)Nc2nc(SCc3ccc(Cl)cc3)n[nH]2)=NN1 reads 51	85	-13	.
# Oc1oc(-c2ccccc2)nc1/C=C1\C=Nc2ccccc21 reads 112	108	-1	.

# Seven entries from above, with values under each structure.
# Below each compound: Sa growth 42C | Sa growth 42C second temp | HCMV UL50-53 inh | GIV-Gai inh
- Cc1ccccc1N1OC2C(=O)N(c3sc4c(c3C#N)CCCC4)C(=O)C2C1c1cccs1 (stereo not given)
    59 | 25 | -13 | 101
- CSc1nc2c(c(=O)n1-c1ccc(F)cc1)SCC2
    112 | 92 | -2 | 108
- COc1ccc2c(c1)CCC/C2=N\N
    102 | 90 | -22 | .
- O=C(NCCc1ccc(Cl)cc1)c1cccn1-c1nnc(N2CCCC2)s1
    131 | 95 | . | 105
- O=C(NC1(O)C(=O)c2ccccc2C1=O)c1ccccn1
    82 | 86 | 36 | 74*
- Cc1ccccc1-c1nnc(-c2ccccc2)o1
    89 | 74 | 12 | 108
- Cn1cc(C(=O)Nc2ccc(Br)cc2F)c2[nH]c(=O)n(-c3ccc(Cl)cc3)c(=O)c21
    . | . | 8 | 108

# Following part:
SMILES,Sa growth 42C,Sa growth 42C second temp,HCMV UL50-53 inh,GIV-Gai inh
Cc1ccc(-c2nc(N3CCCC(C)C3)c3ccccc3n2)cc1 (stereo not given),97,93,1,102
COc1ccc(N(C)C(=O)c2oc(=O)c3ccccc3c2-c2ccc(C)cc2)c(OC)c1,105,91,-21,101
CCOCC(=O)Nc1c(C(=O)Nc2cccc(OC)c2)oc2ccccc12,84,85,.,101
CC(C)(C)c1cc(CCC(=O)NCCN)cc(C(C)(C)C)c1O,97,108,-7,.
CN(C)c1ccc(N=Cc2ccccc2)cc1,95,79,-12,.
COc1ccc(OC)c(CCNC(=O)c2ccc(CS(=O)Cc3cccc(Cl)c3)o2)c1 (stereo not given),115,70,.,104
N#CC1=C(N)N=C(SCC(=O)Nc2ccccc2)C(C(N)=O)C12CCCCC2 (stereo not given),77,75,-36,.
CCOC(=O)COc1ccc(CC)cc1C(=O)c1ccn2nc(-c3ccc(C)cc3)cc2n1,109,95,1,105
CCn1c(-c2ccc(C)cc2)cnc1SCC(=O)N1CCN(C(C)=O)CC1,99,93,20,.
O=c1oc2ccccc2c(O)c1Cc1cc(Cl)c2cccnc2c1O,128,80,-42,.
CCOc1ccccc1NC(=O)C(C)Sc1ccccc1 (stereo not given),94,72,-3,99
CC(C)CCNC(=O)C1CCCN(c2nc3ccccc3o2)C1 (stereo not given),104,92,-3,100
CS(=O)(=O)Nc1cc(C(=O)N2CCN(c3ccc(Cl)cc3)CC2)ccc1N1CCNCC1,.,.,2,108
Cc1onc(-c2ccccc2)c1C(=O)OCC(=O)c1ccc2[nH]c(=O)[nH]c2c1,97,81,-23,.
CCc1ccc2oc(-c3ccc(C)c(NC(=O)c4ccc(C#N)cc4F)c3)nc2c1,80,84,-5,104

# Just GIV-Gai inh, for two of the compounds above:
smiles,GIV-Gai inh
O=C(NCCc1ccc(Cl)cc1)c1cccn1-c1nnc(N2CCCC2)s1,105
O=C(NC1(O)C(=O)c2ccccc2C1=O)c1ccccn1,74*

# (cont.)
SMILES,Sa growth 42C,Sa growth 42C second temp,HCMV UL50-53 inh,GIV-Gai inh
CN(C(=O)Cn1nc(Cc2ccncc2)c2ccccc2c1=O)c1ccccc1,101,97,.,94
CN1CCN(c2nc3cc(C(F)(F)F)ccc3n3cccc23)CC1,91,85,6&-14,102
N#Cc1nncn1-c1ncnc2scc(-c3ccc(Cl)cc3)c12,110,95,4,.
COc1ccc(N2C(=O)CC(Sc3nc4ccccc4c(=O)n3CCO)C2=O)cc1 (stereo not given),75,77,-1,.
Cc1ccccc1C1C(C#N)=C(SCC(=O)Nc2ccc(Br)cc2)NC(=O)C1C#N (stereo not given),.,.,-4,112
CCN1C(=O)C(=C2SC3CS(=O)(=O)CC3S2)SC1=S (stereo not given),89,96,-24,.
Cc1cccc(N2CCN(S(=O)(=O)c3c(C)nc4scc(C)n4c3=O)CC2)c1C,90,94,6,110
CCCSc1nnc2c(n1)OC(c1c(C)[nH]n(-c3ccccc3)c1=O)Nc1ccccc1-2 (stereo not given),.,.,10,106
CCn1c(=O)c2c(nc3n2CCCN3c2ccccc2)n(C)c1=O,92,90,-15,100
O=C(O)CC1NC(=O)N(C2CCCCC2)C1=O (stereo not given),95,90,-23,104
N#CCCCSc1ncnc2scc(-c3ccccc3)c12,93,96,-7,.
COc1cc(C2N=C(N)Nc3nc4ccccc4n32)ccc1OCCC(C)C (stereo not given),75,92,-70&-30,100&102
Cc1cccn2c(=O)c(C(=O)NC3CCCCC3C)c(O)nc12 (stereo not given),50,40,-14,105
O=C(Cn1cc(C(F)(F)F)ccc1=O)N/N=C/c1ccccn1,73,91,-17,.
CCc1ccc(NC(=O)CN2CCN(C3CCCCC3)C(=O)C2=O)cc1,90,91,.,104
O=C(NC1CCCC1)c1ccc(NC(=O)N2CCSc3ncccc32)cc1,.,.,3,102
CN(C)C1CS(=O)(=O)CC1N(C)C (stereo not given),92,86,.,111
COC(=O)c1cccc(NC(=O)/C=C/c2ccco2)c1C,102,94,-22,112
CCn1c(SCC(N)=O)nnc1C1CCCC1,96,102,-5,104
Cc1ccc(C2Nc3ccccc3C(=O)N2CCN2CCNC2=O)cc1 (stereo not given),101,95,12,105
CCCCOc1ccc(-c2csc(-c3nc(-c4ccc5c(c4)OCO5)cs3)n2)cc1,.,.,-6,99
Cc1ccc(S(=O)(=O)C(CNC(=O)C(=O)NCCc2ccccc2)c2cccs2)cc1 (stereo not given),107,88,.,99
O=C(O)c1ccc2c(c1)C(=O)N(c1nc3nc4c(c(=O)n3[nH]1)CCC4)C2=O,108,96,-6,103
Cc1ccc2cccc(NC(=O)c3ccc(-c4ccc(Br)cc4)o3)c2n1,113,95,3,105
Cc1ccccc1CSc1cnc2ccccc2n1,.,.,-16,102
COc1ccc(/C=C2\SC(=S)N(CC(=O)NCCO)C2=O)cc1,88,101,-166,102
Cc1ccc(NC(=O)c2ccc(=O)n(CCC(=O)N3CCN(c4ccccn4)CC3)n2)cc1,.,.,-56,101
COc1cc(NC(=O)N2CCC(CN3CCOCC3)CC2)cc(OC)c1OC,92,102,.,107
COc1cccc(NC(=O)C(=O)NCC(c2cccnc2)N2CCN(c3ccccc3)CC2)c1 (stereo not given),83,99,9,113
COc1ccc(-c2noc(CSc3nnc(C)n3-c3ccc(OC)cc3)n2)cc1,104,84,-11,103
CCOC(=O)c1cc2c(ccn2C)n1CC(=O)N1C(C)CCCC1C (stereo not given),94,82,-16,104
COc1cccc(CNC(=O)c2[nH]nc3c2COc2ccccc2-3)c1,109,92,-7,102
Cc1c(-c2nsc(NC(=O)c3cccs3)n2)nnn1-c1ccc(Br)cc1,94,67,.,102
CNC(=S)Nc1ccc(C)cc1,128,83,-10,.
CCOC(=O)C1=C(CN2CC(C)CC(C)C2)NC(=O)NC1c1ccc(C)cc1 (stereo not given),80,88,.,101
CCOC(=O)C1CCCN(Cc2nc(N)nc(Nc3ccccc3)n2)C1 (stereo not given),105,91,3,104
CCCCN(C)c1ncc(C(=O)O)cc1NS(=O)(=O)c1ccc(Br)cc1,.,.,-38,113
CCOc1ncccc1C(=O)Nc1ccc(S(=O)(=O)N2CCOCC2)cc1,89,89,-19,.
CC1(C)CC(=O)C2=C(C1)OC1=C(C(=O)CC(C)(C)C1)C2c1cc(Cl)ccc1O,.,.,-8,113
CCn1c(=O)n(-c2ccc3c(c2)OCO3)c2nc(-c3cccc(OC)c3OC)nc(C(N)=O)c21,108,92,-20,101
O=S(=O)(Cc1ccccc1)N1CCN(c2cc(-c3cccc(F)c3)ncn2)CC1,.,.,-21,101
Cc1ccc(CNC(=O)CCc2c(C)nn(-c3ccc(N4CCOCC4)nn3)c2C)cc1,97,103,.,98
CCOc1ccc(N(C(=O)c2ccccc2F)S(=O)(=O)c2ccc3c(c2)n(C)c(=O)n3C)cc1,90,85,-10,96
CCc1ccccc1NC(=O)Cn1ccn(-c2cc(C)cc(C)c2)c(=O)c1=O,89,89,-16,99
CC1=Nc2cc(C(=O)NC3CCCC3)ccc2Sc2ccc(Br)cc21,108,90,-6,104
Cc1nnc(N(C)C)c2c1nnn2Cc1ccccc1Cl,104,94,16,109
Cc1csc2nc(CSc3nc(-c4ccccc4)nc4cc(=O)[nH]n34)cc(=O)n12,.,.,-12,92
Nc1c(N2CCCCC2)c2ccccc2oc1=O,102,90,-42,98
O=c1c2sc3nc(N4CCOCC4)c4c(c3c2ncn1-c1ccccn1)CCCC4,100,110,-2,105
CSc1cccc(NC(=O)Cn2c(=O)n(Cc3ccccc3)c(=O)c3sc4ccccc4c32)c1,99,87,-11,104
COC(=O)c1ccc2c(c1)N(Cc1ccc(F)cc1)C(=O)c1ccccc1S2,106,92,.,104
COc1ccc(C2CC(=O)C3=C(C2)Nc2ccccc2NC3c2cc(Cl)c(O)c(OC)c2)cc1OC (stereo not given),.,.,-6,108
CS(=O)(=O)c1ccc(C(=O)N2CCc3ccccc3C2)cc1,93,91,-23,.
COCc1cc(C)nc(SCC(=O)N2CCOCC2)c1C#N,113,96,-13,117
Cn1c(CNC(=O)c2cccs2)nnc1SCc1ccccc1,116,95,14,101
COc1cccc(-c2nc(-c3cc4ccccc4[nH]c3=O)no2)c1,109,62,-6,97
O=C1C=CC(=O)N1c1ccccc1OC(F)(F)F,84,44,1,102
CCN(CC)c1nc2ccccc2n(CC(=O)Nc2ccc(F)cc2F)c1=O,94,98,-25,.
N#Cc1ccc(C(=O)N2CCN(c3cccc(C(F)(F)F)c3)CC2)cc1,88,84,-9,.
Cn1c(CC(O)c2cccc3ccccc23)nc2ccccc21 (stereo not given),104,90,-14,.

# (more compounds)
SMILES,Sa growth 42C,Sa growth 42C second temp,HCMV UL50-53 inh,GIV-Gai inh
COc1ccc(NC(=O)CSc2nc(C)cc(C)c2C(=O)Nc2ccccc2OC)cc1,106,93,-20,103
NNC(=O)CCCOc1ccc(Cl)cc1Cl,94,90,-10,.
O=C(Cn1ncc2ccccc21)NCc1cccnc1,94,84,.,111
COc1cc(C(=O)N2CCc3c([nH]c4ccccc34)C2c2ccc(C)cc2)cc(OC)c1OC (stereo not given),89,93,.,98
CCCOc1ccccc1C1NC(=O)NC(C)=C1C(=O)OCCCBr (stereo not given),.,.,-3,109

# Structures above printed as active in GIV-Gai inh.
smiles,Sa growth 42C second temp,GIV-Gai inh
O=C(NC1(O)C(=O)c2ccccc2C1=O)c1ccccn1,86,74*

# Compound activity from PubChem BioAssay.
